Screening data from PubChem BioAssay.
RanGTP-Imp inh = inhibitors of RanGTP-importin-beta interaction, primary screen, biochemical, FRET, CFP-Ran, YFP-importin-beta, homogeneous; cell-free CFP-Ran/YFP-importin-beta FRET ratio; inhibition, % (concentration not given with the values); actives 1.1% (n = 300,000); AID 2216, 2009;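 active = most replicates above 15%; inconclusive = exactly half above 15%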;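 also: 0% = DMSO wells and 100% = Ran loaded with GDP instead of GTP; wells of about 40 µL received 100 nL stock; the first replicate is given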
Calb FLC = C. albicans growth inhibition with fluconazole, primary screen, CaCi-2 strain, Alamar Blue fluorescence; AID 1979, 2009; growth inhibition, % (concentration not given with the values); C. albicans CaCi-2 (fluconazole-resistant clinical isolate) + fluconazole, 48 h; actives 0.57% (n = 300,000);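 active = most replicates above 75%; inconclusive = exactly half above 75%; inactive = most below 75%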;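 also: all wells also contain fluconazole at 8 µg/ml as a sub-toxic cotreatment; 0% = median of DMSO wells and 100% = median of geldanamycin control wells; wells of about 8 µL received 7.5 nL stock; the first replicate is given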
Beta apoptosis = inhibitors of cytokine-induced beta cell apoptosis, primary screen, luminescence; INS-1E cytokine-induced death, ATP luminescence, 48 h; percent of positive-control rescue, neutral wells zero; protection from apoptosis, % (concentration not given with the values); actives 0.8% (n = 300,000);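 active = all replicates at 75% or more, or half of them and the mean; inconclusive = half reach 75% but not the mean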;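 also: 0% = cytokine-treated negative control wells and 100% = positive control rescue; higher means more ATP so stronger rescue from cytokine killing; wells of about 40 µL received 100 nL stock; the first replicate is given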
ALR inh = inhibitors of human ALR sulfhydryl oxidase, primary screen, biochemical, H2O2 detection, HRP-luminol luminescence, single point; FAD-linked sulfhydryl oxidase ALR (Homo sapiens), P55789; actives 3.8% (n = 290,000); inhibition, % (no concentration beside the values); purified ALR, DTT oxidation; AID 485317, 2010;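 active = mean and each replicate at 75% or more; inconclusive = only one of the two met; inactive = neither met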;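 also: stock transfer was 7.5 nL into about 7.5 µL; 0% = neutral wells and 100% = wells with inactivated enzyme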
Target sequence (P55789 whole entry, looked up): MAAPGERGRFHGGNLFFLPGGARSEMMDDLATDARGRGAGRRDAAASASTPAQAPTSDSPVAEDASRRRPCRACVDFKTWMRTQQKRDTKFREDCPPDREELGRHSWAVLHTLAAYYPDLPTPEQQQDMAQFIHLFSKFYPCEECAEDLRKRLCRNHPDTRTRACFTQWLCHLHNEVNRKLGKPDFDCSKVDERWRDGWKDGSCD
Ecoli rRNA inh = reduced GFP signal of wild-type E. coli, primary screen, bacterial rRNA inhibitor project, GFP/RFP fluorescence, OD600, single point; GFP signal change (wild-type ribosome), % (test concentration not listed); AID 720706, 2013; actives 1.6% (n = 350,000); E. coli WT GFP vs humanized-ribosome RFP mutants, 24 h; hits give low values; DMSO median 0, no signal -100;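 active = significant combined selectivity score with lowered wild-type GFP, culture density cut under 30%, mutant RFP and density less affected; inactive = any of these conditions unmet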; also: one replicate is shown; some compounds called inactive have numbers as strong as hits
AF4-AF9 inh = inhibitors of AF4 peptide binding to AF9, primary screen, biochemical, AlphaScreen, biotin-AF4 peptide, FLAG-AF9, single point; AID 651704, 2012; Protein AF-9 (Homo sapiens), P42568; inhibition, % at 10 µM; actives 0.47% (n = 350,000);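 active = every replicate reaching a set inhibition limit, whatever the replicate mean, cut at about 25% in these data; inconclusive = mean inhibition reaches that limit but some replicates miss it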;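 also: 0% = plate neutral control median and 100% = total signal loss; the record names both 10 and 1 µM as test concentration; the first replicate is given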
Target sequence (P42568 whole entry, looked up): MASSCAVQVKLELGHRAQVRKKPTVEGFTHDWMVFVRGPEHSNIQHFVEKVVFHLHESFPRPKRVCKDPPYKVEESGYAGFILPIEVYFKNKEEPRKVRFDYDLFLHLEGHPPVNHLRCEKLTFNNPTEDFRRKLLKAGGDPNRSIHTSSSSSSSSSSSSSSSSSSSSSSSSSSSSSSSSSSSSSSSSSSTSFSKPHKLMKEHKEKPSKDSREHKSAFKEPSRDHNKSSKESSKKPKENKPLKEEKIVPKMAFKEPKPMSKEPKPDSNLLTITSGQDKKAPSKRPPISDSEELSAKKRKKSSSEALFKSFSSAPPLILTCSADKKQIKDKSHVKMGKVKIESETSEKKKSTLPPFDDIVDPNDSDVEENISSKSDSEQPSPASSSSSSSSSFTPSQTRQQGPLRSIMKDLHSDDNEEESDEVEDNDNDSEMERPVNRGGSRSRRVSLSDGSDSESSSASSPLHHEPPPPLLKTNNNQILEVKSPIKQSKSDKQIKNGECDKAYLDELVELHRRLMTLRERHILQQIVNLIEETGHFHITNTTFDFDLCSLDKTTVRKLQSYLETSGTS
FGF22 binding = binders of human FGF22 protein, primary screen, FGF22 synaptogenesis inhibitor project, biophysical, thermal shift, single point | Fibroblast growth factor 22 (Homo sapiens), Q9HCT0 | recombinant FGF22 thermal shift, SYPRO orange fluorescence; percent of sucrose octasulfate shift, DMSO zero | calls only at 9.99 µM | actives 1.5% (n = 340,000);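 active = melting point raised past a set limit in the mean and every replicate; inconclusive = no clear call; three in four hits are not shown here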
Target sequence (Q9HCT0 whole entry, looked up): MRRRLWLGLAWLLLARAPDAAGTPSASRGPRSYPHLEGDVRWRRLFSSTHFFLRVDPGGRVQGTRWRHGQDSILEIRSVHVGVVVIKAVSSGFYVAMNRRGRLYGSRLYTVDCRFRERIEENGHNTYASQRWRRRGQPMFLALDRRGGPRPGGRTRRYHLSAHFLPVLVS
T cruzi inh = inhibitors of intracellular T. cruzi growth, primary screen, luminescence, NIH3T3 host cells | T. cruzi beta-gal in NIH3T3, 90 h | inhibition, % (no concentration beside the values) | actives 1.4% (n = 300,000) | AID 1885, 2009;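 active = mean inhibition across valid replicates above about 55%, limit read from the data; inconclusive = mean below that limit but half or more replicates reach it; inactive = mean below it, under half of replicates reach it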;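 also: signal also drops with host cell toxicity which is not excluded here; 0% = plate median of DMSO wells and 100% = zero luminescence signal; higher percent means less beta-gal luminescence so fewer parasites; stock transfer was 50 nL into about 50 µL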
Ecoli rRNA inh OD600 = further read-out of Ecoli rRNA inh, marked with its call; OD600 change, %; measured here: OD600 growth;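 optical density of the mix in the first replicate; 0 = DMSO median and -100 = no signal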
Ecoli rRNA inh RFP = second read-out of Ecoli rRNA inh, no call of its own (marks repeat the call); RFP signal change, %; measured here: RFP humanized mutant strains;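 first replicate; 0 = DMSO median and -100 = no signal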
An asterisk follows results filed as active; i = inactive; ? = inconclusive; · = no result given; + = active, no number.

Order of values: RanGTP-Imp inh, Calb FLC, Beta apoptosis, ALR inh, Ecoli rRNA inh, Ecoli rRNA inh OD600, Ecoli rRNA inh RFP, AF4-AF9 inh, FGF22 binding, T cruzi inh
CC(C)(C)c1cc[n+](CC(=O)Nc2cc(C(F)(F)F)ccc2N2CCOCC2)cc1
 : 3.5, -20, 17, -7, -22, 3, 11, 2.2, i, -16
Cc1ccc(S(=O)(=O)N2CCCC2CNC(=O)C(=O)Nc2ccc(F)cc2F)cc1 (stereo not drawn)
 : -2.6, 4, 0, -2, -12, -8, -1.5, -0.6, i, 1
Oc1ccc(C[C@H]2CNCCN2CC2CCCCC2)cc1
 : 6.8, -4, 7, 14, 0, 3, -3.5, 2.2, i, -6
N#Cc1ccccc1NC(=O)c1ccc2c(c1)OCO2
 : -4.4, 5, -2, 0, 6, 4, -4.4, 1.0, i, -9
CC1(C)CC(=O)c2sc(NC(=O)C(C)(C)C)nc2C1
 : -0.5, 23, 4, -1, 20, 6, -0.6, -1.9, i, 8
Cc1nnc(NC(=O)CN2CCN(Cc3ccccc3)CC2)s1
 : -3.2, -3, 1, 6, 11, 22, 1.1, 4.5, i, 33
COCCN1CCc2[nH]c(=S)[nH]c(=O)c2C1
 : 1.7, -10, -8, -4, ·, ·, ·, ·, ·, 9
O=C(CSCC(=O)OCn1nnc2ccccc2c1=O)Nc1ccc(Cl)cc1
 : 4.7, 3, -5, 98*, ·, ·, ·, ·, ·, -20
Cc1c(NC(=O)/C(=C\c2ccccc2)NC(=O)c2ccccc2)c(=O)n(-c2ccccc2)n1C
 : 2.4, -15, -6, -10, ·, ·, ·, ·, ·, -15
Cc1ccc(C(C2=C(O)CC(C)(C)CC2=O)C2C(=O)CC(C)(C)CC2=O)s1 (stereo not drawn)
 : -1.6, 22, -7, 98*, ·, ·, ·, ·, ·, -15

Some of these compounds in order of heavy-atom count, falling.
Order of values: RanGTP-Imp inh, Calb FLC, Beta apoptosis, ALR inh, Ecoli rRNA inh, Ecoli rRNA inh OD600, Ecoli rRNA inh RFP, AF4-AF9 inh, FGF22 binding, T cruzi inh
Cc1c(NC(=O)/C(=C\c2ccccc2)NC(=O)c2ccccc2)c(=O)n(-c2ccccc2)n1C
 : 2.4, -15, -6, -10, ·, ·, ·, ·, ·, -15
Cc1ccc(S(=O)(=O)N2CCCC2CNC(=O)C(=O)Nc2ccc(F)cc2F)cc1 (stereo not drawn)
 : -2.6, 4, 0, -2, -12, -8, -1.5, -0.6, i, 1
Cc1nnc(NC(=O)CN2CCN(Cc3ccccc3)CC2)s1
 : -3.2, -3, 1, 6, 11, 22, 1.1, 4.5, i, 33

Further results.
Order of values: RanGTP-Imp inh, Calb FLC, Beta apoptosis, ALR inh, Ecoli rRNA inh, Ecoli rRNA inh OD600, Ecoli rRNA inh RFP, AF4-AF9 inh, FGF22 binding, T cruzi inh
CSCC(=O)Nc1ccc(F)c(Cl)c1
 : 3.1, 17, 5, 28, 2, 3, 0.3, -3.6, i, -4
COc1cccc2c(SCC(=O)N/N=C/c3ccc(O)cc3O)cc(C)nc12
 : -1.9, -3, ·, ·, 1, 7, 12, -1.0, +, -16
Cc1sc2ncnc(N3CCC(C(=O)NNC(=O)COc4cccc(C(F)(F)F)c4)CC3)c2c1C
 : -0.2, 13, -8, -6, -19*, -9.5*, 3.0*, -0.3, i, 8
CCOC(=O)c1c(NC(=O)CN2C(=O)NC(C)(c3ccc(Cl)cc3)C2=O)sc(C(=O)NC)c1C (stereo not drawn)
 : -1.5, 25, 7, -24, ·, ·, ·, ·, ·, 24
Cc1cccc(C(=O)Oc2ccccc2-c2nnco2)c1
 : 0.0, 17, 3, 7, ·, ·, ·, ·, ·, -11
CC(C)(C)c1cccc(C2(O)C(=O)c3ccccc3C2=O)c1O
 : 1.0, 9, -8, 1, -38*, -24*, -9.1*, 0.4, i, -9
OC1(c2ccccc2)CNCCc2ccccc21 (stereo not drawn)
 : 3.2, -5, 1, -43, 17, 13, 1.6, 0.6, i, -11
COc1cccc(NC(=O)C2CCCN(S(=O)(=O)c3cccc4nonc34)C2)c1 (stereo not drawn)
 : 5.3, 10, -8, -18, -2, 1, 2.7, -2.1, i, 6
CC(=O)Nc1ccc(NC(=O)C(C)Sc2nc3nc(C)cc(C)n3n2)cc1 (stereo not drawn)
 : 0.0, -3, -3, -9, 4, 3, 2.0, -1.5, i, 0
O=S(=O)(C/C(=C/CO)S(=O)(=O)c1ccccc1)c1ccccc1
 : -1.0, 12, 90*, 99*, ·, ·, ·, ·, ·, 62*
O=C(CN(Cc1ccccc1Cl)C(=O)c1csnn1)NCc1ccc(F)cc1
 : 5.6, 4, 5, 5, 3, 11, -0.5, 0.1, i, 5
O=C(COc1cccnc1[N+](=O)[O-])N1CCc2ccccc2C1
 : 3.2, 1, 3, -32, 10, 5, 0.0, 1.3, i, -8
C=C(CO)C1Cc2cc(C(C)=O)ccc2O1 (stereo not drawn)
 : -0.4, 3, ·, 7, ·, ·, ·, -4.3, i, -25
COc1ccc(/C=C/C(=O)N2CCCC2)cc1OC
 : -3.7, 9, -11, ·, 4, 8, 1.4, -1.9, i, -8
CC1CCN(C(=O)CN(CCc2ccccc2)S(C)(=O)=O)CC1
 : -0.5, 29, -6, -7, ·, ·, ·, ·, ·, 5
Cc1cnc(C(=O)OCC(=O)Nc2cccc(Cl)c2)cn1
 : 0.5, -3, -11, -2, ·, ·, ·, ·, ·, -3
COc1ccc(C2C=C(C34CC5CC(CC(C5)C3)C4)NC(=S)N2)cc1 (stereo not drawn)
 : ·, -39, -9, -3, ·, ·, ·, ·, ·, 42
c1ccc(C2(CN3CCNC[C@H]3Cc3cccc4ccccc34)CC2)cc1
 : 3.7, 11, -3, -15, -7, -19, 18, 13, i, 15
COc1ccccc1NC(=S)NCc1cccnc1
 : -1.0, -2, -8, -16, 12, -12, 2.1, -10, i, 5
c1ccc(N2CCN(Cc3cnc(N4CCOCC4)s3)CC2)cc1
 : 5.3, -10, 0, 61, 11, -1, 1.0, 2.3, i, 22

Only T cruzi inh, FGF22 binding and ALR inh, for some of the entries so far:
smiles,T cruzi inh,FGF22 binding,ALR inh
C=C(CO)C1Cc2cc(C(C)=O)ccc2O1 (stereo not drawn),-25,i,7
COc1ccccc1NC(=S)NCc1cccnc1,5,i,-16

Next section.
Order of values: RanGTP-Imp inh, Calb FLC, Beta apoptosis, ALR inh, Ecoli rRNA inh, Ecoli rRNA inh OD600, Ecoli rRNA inh RFP, AF4-AF9 inh, FGF22 binding, T cruzi inh
CC(C)NC(=O)c1n[nH]c(=O)c2ccccc12
 : -0.6, 5, -2, -12, ·, ·, ·, ·, ·, 11
O=C(/C=C/c1cccc(Cl)c1)Nc1ncccn1
 : -3.2, 10, -6, ·, ·, ·, ·, ·, ·, -10
O=C(CSc1nc2c(cnn2-c2ccccc2)c(=O)[nH]1)N1CCOCC1
 : 4.5, -1, 7, -1, ·, ·, ·, ·, ·, -17
CC(=O)c1ccc(N2CCN(C(=S)Nc3ccccc3C(F)(F)F)CC2)cc1
 : ?, -16, 23, ·, -10, -10, -0.5, -0.1, i, 11
COC(=O)c1cc(C(=O)OC)cc(N2C(=O)CC(Sc3nc(C)cc(C)n3)C2=O)c1 (stereo not drawn)
 : -3.9, 1, -4, -4, ·, ·, ·, ·, ·, 3
CN(C)CCCn1c(SCC(=O)N2c3ccccc3Sc3ccccc32)nc2ccccc2c1=O
 : 1.0, -1, -1, 97*, 6, 10, 4.6, ?, i, 58*
Cc1ccc(CNS(=O)(=O)c2cc3c(cc2C)N(C)CCO3)cc1
 : 7.9, 2, -2, 89*, -3, 1, -2.2, 5.8, i, -1
CCNc1nc(NCC)nc(N/N=C(\C)c2ccc(OC)cc2)n1
 : 0.7, -2, 11, -6, -3, 9, 1.8, -1.5, i, 27
O=C(Cc1cccs1)NCc1cccc(Br)c1
 : 0.4, -7, -2, -1, 0, -17, -2.1, -3.6, i, 3
COc1ccc(C(=O)N/C(=C\c2ccco2)C(=O)NCCCn2ccnc2)cc1
 : -0.3, -5, -2, -2, -2, 7, 1.9, -4.1, i, -16
Nc1nc(CN2CCN(c3ccc(F)cc3)CC2)nc(N2CCCc3ccccc32)n1
 : 0.4, 7, 6, 64, ·, ·, ·, ·, ·, -10
CCc1[nH]nc2c1C(Cc1ccccc1)C(C#N)=C(N)O2 (stereo not drawn)
 : 2.3, 2, 1, ·, ·, ·, ·, ·, ·, -10
O=c1c2sccc2nc(SCc2cc(=O)n3cc(Cl)ccc3n2)n1Cc1ccccn1
 : 7.0, -2, -17, 88*, 19, 3, 13, -1.5, i, 17
Cc1cc(OCC(=O)OCC(=O)NCCN2C(=O)CSC2=O)ccc1Cl
 : ·, ·, -4, 2, ·, ·, ·, -1.9, i, ·
Cc1cccc(NC(=O)c2nc[nH]c2C(=O)N2CCN(C(=O)OC(C)(C)C)CC2)c1
 : ·, ·, 0, 0, ·, ·, ·, -49, i, ·
Cc1nn(CC(=O)N2CCOCC2)c(C)c1[N+](=O)[O-]
 : -0.8, -12, -11, -4, ·, ·, ·, ·, ·, -10
CC(=O)c1ccc(Sc2ccc(C(C)=O)cc2)cc1
 : 2.1, -2, -3, 0, ·, ·, ·, ·, ·, 4
Cc1c(NC(=O)CSc2nnc(-c3ccco3)n2-c2ccccc2)c(=O)n(-c2ccccc2)n1C
 : -3.5, 4, -5, -2, ·, ·, ·, ·, ·, -1
CCc1ccc(Cn2nnc(C(=O)Nc3ccc(OC)cc3OC)c2N)cc1
 : 0.9, -2, -9, ·, 11, 20, -0.2, -1.9, i, -2
Cc1csc(=O)n1CCC(=O)OCC(=O)NNC(=O)c1ccc(Br)cc1
 : ·, ·, -2, ·, 2, 12, 1.4, 0.5, i, ·
CC(=O)c1nnn(-c2ccc(F)cc2F)c1C
 : 4.0, -1, -3, -1, 1, 8, 0.2, 0.5, i, -14
CC(=O)NC(C)C12CC3CC(CC(C(=O)O)(C3)C1)C2 (stereo not drawn)
 : 6.6, 3, 2, -3, ·, ·, ·, ·, ·, -13
O=C(NCC(=O)N(c1ccccc1)C(C(=O)NCC1CCCO1)c1ccccc1)c1cccs1 (stereo not drawn)
 : 5.9, 3, -9, -1, 10, 11, -1.2, 2.1, i, -4
C/C(=N\OCC(=O)OCC(=O)NC(=O)c1ccccc1)c1ccc2c(c1)OCO2
 : 17*, -7, -2, -11, 5, 1, -0.3, -14, i, -5
CCN1CCCC1CN(Cc1cc2ccc(C)cc2[nH]c1=O)C(=S)Nc1ccc(OC)cc1OC (stereo not drawn)
 : 2.0, -27, -2, -14, ·, ·, ·, ·, ·, 1
Clc1ccc(Cn2cc(/C=N/n3cnnc3)c3ccccc32)c(Cl)c1
 : 7.7, ?, -5, -14, ·, ·, ·, ·, ·, 20

These rows are one share of the data; count on the stated rates, not on these rows.
